# Source: PubChem (Center for Chemical Genomics, University of Michigan)
# HIV TAR-Tat – HIV-1 TAR-Tat binding disruption; HIV-1 TAR RNA, Tat peptide displacement FRET; hits give high values; z-score (concentration not given with the values); 100,000 tested, 0.6% active; AID 1259389;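 note: score is relative to mean and SD of negative controls; some compounds called inactive have numbers as strong as hits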
# CDC25B-CDK2 inh – human CDC25B-CDK2/CyclinA binding inhibition; HTRF CDC25B-CDK2/CyclinA binding, anti-His/anti-Flag; hits give high values; z-score (test concentration not listed); 94,000 tested, 0.72% active; AID 1259370;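 note: score is relative to mean and SD of negative controls; strong numbers were not always called active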
# * = called active by the depositor; nt = no result given.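 Rule for the calls: active = z-score from 3 up in half or more of its runs; inactive = the rest.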 This is a random part of the collection; about 0.9% have a hit in one of these screens.
# Every second line gives: HIV TAR-Tat	CDC25B-CDK2 inh
COc1c(O)cc2oc3cc(O)c(CC=C(C)C)c(O)c3c(=O)c2c1CC=C(C)C
  0.83	nt
Cc1ccccc1C(=O)OCc1cc(=O)n2nc(CC(C)C)sc2n1
  0.62	nt
NNC(=O)c1ccc(CNC(=O)C(Cl)Cl)cc1
  nt	-1
O=C(NCC1CCCO1)c1ccc(CSc2nc3ccncc3n2Cc2ccccc2F)cc1 (configuration not stated)
  0.91	0.67
CCN(CC)S(=O)(=O)c1ccc(-c2cnc(C)o2)cc1
  1	nt
O=C(Nc1ccc(Br)cc1F)c1cnn2c3c(cnc12)CCCCC3
  -0.35	nt
CCc1ccccc1Nc1nc2ccccc2n2c(C)nnc12
  1.4	-1.7
CC(C)OC(=O)NCCOC(=O)Nc1ccc(Cl)cc1
  0.76	nt
Cc1cc(-c2ccc(C(C)C)c(S(=O)(=O)NCCN3CCC(C)CC3)c2)on1
  -1.1	nt
O=C(Nc1cccc(-c2nc3ccccc3[nH]2)c1)c1ccccc1
  nt	-0.46
Cc1nc2c(c(C)c1CCC(=O)N1CCN(C3CCCCC3)CC1)c(=O)n(C)c(=O)n2C
  -2.2	-0.67
O[N+]1=CC=CCC1=S.On1ccccc1=S.[Zn]
  0.91	nt
CCCc1nn2c(=O)cc(COc3ccc(NC(=O)C(C)C)cc3)nc2s1
  0.17	-0.29
O=C(CN1C(=O)CSc2cccn2-c2ccccc21)NC1CCCCC1
  0.56	nt
O=C(O)CSc1nnc(C2COc3ccccc3O2)n1-c1ccccc1 (configuration not stated)
  nt	0.88
CC(C)OCCCNC(=O)NC1COc2ccccc2C1 (configuration not stated)
  1.7	nt
Cc1cc(NC(=O)CC(C)CC2=NS(=O)(=O)c3ccccc3N2)ccc1Br (configuration not stated)
  0.87	nt
Cc1nn(CCCC(=O)N2CCN(c3ccccn3)CC2)c(=O)c2cc3sccc3n12
  -0.21	-0.78
CCc1nn(CCCC(=O)N2CCN(c3ccc(Cl)cc3)CC2)c(=O)c2cc3occc3n12
  -0.41	-1.9
COc1cc(/C=C2/SC(=S)N(CC(=O)O)C2=O)ccc1OC(=O)c1cccc(C)c1
  nt	-2

# The results go on:
# Every second line gives: HIV TAR-Tat	CDC25B-CDK2 inh
O=C(C1CCN(c2nc3cccnc3s2)CC1)N1CCN(c2ccccc2F)CC1
  1.6	nt
Fc1ccc(Nc2ncnc3onc(-c4ccc(Cl)cc4)c23)c(F)c1
  -0.15	-0.08
COc1ccccc1NC(=O)Nc1nnc(-c2ccncc2)s1
  nt	-2
COc1ccc(S(=O)(=O)c2nnn(-c3ccc(F)cc3)c2C)cc1
  -2.2	-1.2
CC1(C)CC2C1CCC1(C)OC1CCC2(C)O (configuration not stated)
  0.93	nt
CCOC(=O)C1=C(C)OC(N)=C(C#N)C1c1ccc2c(c1)CCO2 (configuration not stated)
  nt	-2
O=C(CCCSc1nc(-c2ccco2)cc(C(F)(F)F)n1)NCc1cccnc1
  1.7	-1.8
COC(=O)c1sc2cccc(F)c2c1S(=O)(=O)Nc1ccc(OC)cc1OC
  1.2	nt
CCC1=C[C@H]2CN(C1)Cc1c([nH]c3ccccc13)[C@@](C(=O)OC)(c1cc3c(cc1OC)N(C)[C@H]1[C@@](O)(C(=O)OC)[C@H](OC(C)=O)[C@]4(CC)C=CCN5CC[C@]31[C@@H]54)C2
  1.2	nt
COC(=O)c1c(-c2ccc(Cl)cc2)noc1NCC1CCCO1 (configuration not stated)
  -0.01	nt
O=C(Nc1sc2c(c1C(=O)NCCc1ccccc1)CCC2)c1csnn1
  0.08	-1.4
CCOC(=O)c1c(S(=O)(=O)N(C)Cc2ccco2)c(C)n(C)c1C
  0.91	nt
Cc1nn(C)c(C)c1CNS(=O)(=O)c1ccccc1Cl
  -0.95	nt
CN1C(=O)C(C)(C)c2cc(S(=O)(=O)N3CCC(C(=O)N4CCCCC4)CC3)ccc21
  2.4	-0.9
COCCCNS(=O)(=O)c1ccc2c(c1)NC(=O)C(C)CS2 (configuration not stated)
  0.91	nt
Cc1c(Cl)cccc1NC(=O)C1=NNC(=O)CC1
  nt	0.27
COCCNC(=O)CCc1nnc2ccc(N3CCCCC3)nn12
  0.23	nt
O=C(NCCCN1CCCCC1)C1CCCN(c2nnc(N3CCCC3=O)s2)C1 (configuration not stated)
  1.9	-3.8
O=C1CCC(C(=O)N(Cc2ccco2)C2(C(=O)NC3CCCCC3)CCCCC2)N1 (configuration not stated)
  nt	0.45
O=c1ccc(-c2ccc(S(=O)(=O)N3CCN(C(c4ccccc4)c4ccccc4)CC3)o2)n[nH]1
  2.2	nt

# Next compounds follow.
# Every second line gives: HIV TAR-Tat	CDC25B-CDK2 inh
Cc1cc2oc3c(c(=O)c2cc1C)C1(C(=O)N(C)c2ccccc21)N(CCCO)C3=O (configuration not stated)
  0.71	-0.54
O=C(Nc1nc(-c2ccc(Br)o2)ns1)c1ccc(F)cc1
  0.32	-1
CCC(C)NC(=O)c1nn2c(c1Cl)NC(c1ccc(Br)cc1)CC2C(F)(F)F (configuration not stated)
  -1.2	-1.2
Cc1sc2ncnc(NCc3ccc4c(c3)OCO4)c2c1C
  0.1	-2
CCC(C)NC(=O)C1=C(C)C(=O)OC12CCN(S(C)(=O)=O)CC2 (configuration not stated)
  0	nt
O=S(=O)(c1ccc2nc(NCc3ccccc3Cl)ccc2c1)N1CCCCC1
  0.44	nt
CC(C)Cc1nnc(NS(=O)(=O)c2ccccc2)s1
  0.84	0.39
S=c1[nH]nc(-c2cccs2)n1Cc1ccc2c(c1)OCO2
  nt	-0.28
CC(C)(C)c1ccc(-c2nn3cnnc3s2)cc1
  -0.04	0.46
Cc1ccc(C2C(=O)N(C3CCCC3)CC(=O)N2C2CCCCC2)cc1 (configuration not stated)
  nt	-1.2
Cc1noc(NS(=O)(=O)c2ccc(NC(=O)c3nn(-c4ccccc4)ccc3=O)cc2)c1C
  16*	-0.82
Cn1c(SCc2nc(-c3cccs3)no2)nnc1-c1ccccc1
  1.2	-1
Clc1ccc(-c2csc(-c3ccno3)n2)cc1
  nt	-0.77
Cc1[nH]nc(Nc2ccc(C(=O)O)cc2)c1[N+](=O)[O-]
  1.1	-0.26
Cc1cc(C)cc(Nc2ncnc3c2cnn3-c2ccc(F)cc2)c1
  0.9	nt
Clc1ccc(-c2noc3ncnc(NC4CCN(Cc5ccccc5)CC4)c23)cc1
  1.2	-0.29
O=C1CC(c2ccccc2)CC2=C1C(c1ccncc1)Nc1ccccc1N2 (configuration not stated)
  0.7	-0.58
Cc1ccccc1-c1noc(-c2cc(-c3ccco3)n[nH]2)n1
  -0.29	nt
Cc1nn(Cc2ccc(C(=O)Nc3cc(Cl)cc(Cl)c3)o2)c(C)c1Br
  nt	-0.68
CCOc1c(Nc2ccc(F)cc2F)c(=O)c1=O
  0.96	nt

# A different layout for four compounds above:
mol	HIV TAR-Tat	CDC25B-CDK2 inh
Cc1[nH]nc(Nc2ccc(C(=O)O)cc2)c1[N+](=O)[O-]	1.1	-0.26
Cc1cc(C)cc(Nc2ncnc3c2cnn3-c2ccc(F)cc2)c1	0.9	nt
Clc1ccc(-c2noc3ncnc(NC4CCN(Cc5ccccc5)CC4)c23)cc1	1.2	-0.29
O=C1CC(c2ccccc2)CC2=C1C(c1ccncc1)Nc1ccccc1N2 (configuration not stated)	0.7	-0.58

# The list continues.
# Every second line gives: HIV TAR-Tat	CDC25B-CDK2 inh
Cc1ccc(C(=O)NCC2COCCO2)cc1NC(=O)C1=CSCCO1 (configuration not stated)
  0.36	nt
CCn1c(SCC(=O)Nc2ccc3c(c2)OCCO3)nc2c(c1=O)SC(C)C2 (configuration not stated)
  nt	-1
Cc1cc(C)c(-c2c(N3CCCc4ccccc43)c(=O)c2=O)cc1C
  -0.66	nt
Cc1cc(-c2ccc(S(=O)(=O)N3CCCC3)s2)on1
  0.78	nt
O=C1CC(c2c(F)cccc2Cl)C2=C(CC(c3cccs3)CC2=O)N1 (configuration not stated)
  0.3	-0.25
O=C(NCCn1cnc2cc(C(=O)NC3CCCC3)ccc21)NCc1ccc(F)cc1
  -0.46	nt
Cc1ccc(NS(=O)(=O)c2ccc(-c3cc(C)no3)s2)nc1
  1.4	nt
CCOC(=O)CNC(=O)N1Cc2c(sc3c2CCCC3)-n2cccc2C1c1ccc(SC)cc1 (configuration not stated)
  -1.3	nt
CC1(C)CC(=O)C2=C(C1)OC1=C(C(=O)CC(C)(C)C1)C2c1ccccc1
  nt	-0.17
O=C(Cn1c(=O)oc2cc(S(=O)(=O)N3CCCC3)ccc21)Nc1ccc(Cl)cc1
  1.1	-1.1
CCS(=O)(=O)c1nc(S(=O)(=O)c2ccc(C)cc2)c(NCCCn2ccnc2)s1
  0.33	-1.5
CC(C)N(CCC#N)C(=O)Nc1ccc2c(c1)CCO2
  nt	-1.3
Cc1ccc(C)c(NC(=O)CSc2ccc3nnc(-c4ccc(F)cc4)n3n2)c1
  nt	-5.2
CCn1c2ccccc2c2nnc(NCCCN3CCN(c4cccc(Cl)c4)CC3)nc21
  1.9	0.26
O=C(c1cn(-c2cccc(Cl)c2)nn1)N1CCN(c2ccccc2)CC1
  0.76	nt
CCc1nn(C(C)C(=O)N2CCCCCC2)c(=O)c2cc3occc3n12 (configuration not stated)
  nt	-0.53
CCOC(=O)c1sc2nc3c(c(-c4ccco4)c2c1N)CCC3
  nt	-2.8
Cn1c(=O)c2cc(C(=O)Nc3ccc(F)cc3)sc2n(C)c1=O
  -0.36	nt
CCOC(=O)N1CCN(C(=O)c2ccc3c(c2)N=C(CC)c2cc(C)ccc2S3)CC1
  1.9	-1.9
COc1ccc(OC)c(C2=NS(=O)(=O)N(C)C(C(=O)Nc3sc4c(c3C#N)CCC4)=C2)c1
  3.2	-1.4

# New compounds follow.
# Every second line gives: HIV TAR-Tat	CDC25B-CDK2 inh
CNc1nc(Oc2ccc(=O)[nH]n2)nc(N2CCOCC2)n1
  nt	2
CCc1ccc(-n2c(SCc3cc(=O)n4ccccc4n3)nc3[nH]ncc3c2=O)cc1
  nt	-2.3
COc1ccc2sc(C)[n+](CCC(=O)O)c2c1
  1.2	-3.1
Cc1ccc(C)c(CN2CCCN(C(=O)Cn3ncc4c(=O)oc5ccc(C)cc5c43)C2)c1
  nt	-1.3
O=C(Nc1c(C(=O)N2CCN(c3ccccc3F)CC2)oc2ccccc12)c1ccco1
  2.5	nt
O=S1(=O)N=C(SCc2ccccc2F)Nc2ccccc21
  0.72	nt
CC(C)N1C(=O)COc2ccc(Br)cc2C1C(=O)NC1CCCC1 (configuration not stated)
  0.9	nt
CCCc1nn2c(C)c(-c3ccccc3)nc2s1
  2.4	-3.3
Cc1sc2c(c1C)c(=O)n(-c1ccccc1)c(=O)n2Cc1cc(=O)n2cc(Cl)ccc2n1
  nt	-0.52
O=C(NC1CCCC1)C1CCCN(c2nnc(N3CCCC3=O)s2)C1 (configuration not stated)
  1.1	-1.9
Cc1ccc(-n2ncc3c(NCCO)ncnc32)cc1
  0.11	nt
Cc1nc(-c2ccc(S(=O)(=O)N3CCCc4ccccc43)cc2)co1
  -1.2	nt
O=C(NCCN1CCCC1)c1cc(-c2cccnc2)nc2ccc(Br)cc12
  -3.6	nt
Cc1nnc(N2C(=O)c3oc4ccccc4c(=O)c3C2c2cccc(OCc3ccccc3)c2)s1 (configuration not stated)
  2.6	1.5
CCOc1ccc(NC(=O)Nc2nnc(N(C)C3CCCCC3)s2)cc1
  2.8	-0.41
CCC(=O)Nc1ccc(S(=O)(=O)N2CCN=C2SC)cc1
  -1.4	-1.2
CCOc1ccc2oc(C)c(C(=O)O)c2c1
  1.1	-0.56
O=C(NCCNS(=O)(=O)c1ccccc1)N1CCOCC1
  -0.48	-1.9
CC(=O)N1CCc2cc(Br)cc([N+](=O)[O-])c21
  nt	0.83
Fc1ccccc1-c1nn2c(-c3ccncc3)nnc2s1
  1.9	-0.48

# Additional entries:
# Every second line gives: HIV TAR-Tat	CDC25B-CDK2 inh
C=CCN(CC=C)C(=O)c1cc(-c2ccccc2)nc2ccccc12
  1.7	-0.78
O=C(CSc1ccc(-c2ccccn2)nn1)Nc1ccc2c(c1)OCO2
  2.1	nt
N#Cc1nc(/C=C/c2ccc(F)cc2)oc1NCCCn1ccnc1
  0.52	-2.4
CCOc1ccc(NC(=O)Nc2c(C)[nH]c(=O)[nH]c2=O)cc1
  1.5	-0.66
CCc1ccc(-c2cc(C)no2)cc1S(=O)(=O)Nc1ccc(C)c(N(C)C)c1
  0.38	nt
O=c1cc(-c2ccc(Cl)cc2)[nH]n1-c1nc2ccccc2[nH]1
  -1.8	-1.3
CCn1nc(C)c(CCNS(=O)(=O)c2cc(Cl)ccc2OC)c1C
  2.5	nt
Cc1c(S(=O)(=O)c2ccc(Cl)cc2)csc1C(=O)Nc1ccc2c(c1)OCCO2
  nt	-1.9
CCC(=O)N1c2ccccc2NC2=C(C(=O)CC(C)(C)C2)C1c1ccc2c(c1)OCO2 (configuration not stated)
  -7.8	-1.2
Cc1csc(NC(=O)CSc2nc(=O)n(Cc3ccco3)c3c2CCC3)n1
  0.57	nt
O=C(Nc1ccc(Cl)cc1)N1CCC(CN2CCOCC2)CC1
  -0.45	nt
N#Cc1sc(-c2ccc(F)cc2)cc1N
  nt	-1.9
Cc1cc(C)cc(NC(=O)CSc2nc3c(c(=O)[nH]2)CCC3)c1
  0.21	1.1
Cc1cc(C)c2c(c1)C(=O)C(c1cc(=O)c3ccccc3[nH]1)C2=O (configuration not stated)
  -1.5	-0.88
COc1ccc(C2CC(=O)c3cc(-c4nc(-c5ccc(C)cc5)cs4)c(=O)[nH]c3C2)cc1OC (configuration not stated)
  -4.6	0.45
Cc1ccc(CNC(=O)CCC2=NS(=O)(=O)c3ccccc3N2)o1
  0.69	nt
CCCCNC(=O)c1cc(-c2cccs2)on1
  0.39	-2.8
